High-throughput results deposited in PubChem BioAssay by Fisher Drug Discovery Resource Center.
NPYLR7 ag: agonists of mosquito NPYLR7 receptor, primary screen, cell-based, Aedes aegypti, calcium fluorescence, mosquito biting behavior. activation, % at 10 µM. HEK293T NPYLR7/Galpha15, GCaMP6s calcium fluorescence. 270,000 compounds, 0.15% hits. Aedes aegypti neuropeptide Y-like receptor 7 (NPYLR7); in the data active means activation above about 40%;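 further: 0% = vehicle and 100% = reference agonist at the receptor; some compounds past the cut are filed as inactive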
NPYLR7 ag max-min: also measured in NPYLR7 ag; calls as there; activation, %; measured here: Max-Min RFU normalised activation; some inactives read as strong as hits;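 span of the calcium signal over five minutes; 0% = vehicle and 100% = native peptide agonist; compound fluorescence can raise it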
An asterisk follows results filed as active; & = joins results of further samples.

SMILES | NPYLR7 ag | NPYLR7 ag max-min
COc1cc(C(=O)N2CCOC(COCc3ccccc3F)C2)cc(OC)c1C (stereo not given) | 3.3 | -1.8
Cc1ccnc(Sc2nc3c(c(=O)[nH]c(=O)n3C)n2CCCc2ccccc2)n1 | 1.0 | 2.1
COc1ccc2nc(CCN(C)C(=O)C3CC4(CCNCC4)CN3)[nH]c2c1 (stereo not given) | 1.7 | -0.4
CCCCc1cc(-c2n[nH]c(=S)o2)c2ccccc2n1 | -2.7 | -1.7
CCCNC(=O)C1(C)CCCN(Cc2ccc(C)cc2)C1 (stereo not given) | -2.7 | -2.0
CCCCCCCCn1c(=O)c2c(nc3n2CCN3c2ccccc2)n(C)c1=O | 6.8 | 4.5
Nc1cc(-c2cccs2)c(Br)s1 | -5.5 | 4.2
COC(=O)C(Cc1ccccc1)NC(=O)c1c(C)oc(C)c1-c1ccc(Cl)cc1 (stereo not given) | -1.5 | -5.6
CCCCCCc1ccc(C(=O)N2CCc3nc(-c4ccccc4)nc(N4CCN(CC)CC4)c3C2)cc1 | -0.6 | 5.2
CC(=O)Oc1cccc(C(=O)N2CCC(Cc3ccc(C(F)(F)F)cc3)CC2)c1C | 17.0 | -0.1
CCCCN(C(=O)c1cc(C(F)(F)F)cc(C(F)(F)F)c1)C(C)c1nc2ccccc2c(=O)n1-c1ccccc1OCC (stereo not given) | -10.2 | -12.6
CN(C)c1nc2c(c(=O)[nH]1)CCN(C(=O)CCc1cc(Cl)no1)C2 | 10.7 | 6.2
CCC(C)n1cc(/C=C2/C(=O)NC(=O)N(c3ccc4c(c3)OCO4)C2=O)c2ccccc21 (stereo not given) | 51.5* | 76.1*
CCc1ncc(C(=O)N2CCN(Cc3ccc(Cl)cc3)CC2)[nH]1 | 7.5 | 4.2
COc1ccc2c(c1)N(Cc1cccc(C(N)=O)c1)CC(C)O2 (stereo not given) | -4.8 | -6.5
CCc1[nH]c2c(CNc3nccc(N4CCC(O)C4)n3)cc(C)cc2c1C (stereo not given) | 8.2 | 5.5
O=C1NCC2(CCCN(C(=O)c3[nH]cnc3-c3ccccc3)C2)O1 (stereo not given) | 11.2 | 0.8
COc1ccc(C(=O)Cn2cnc3c(nnn3-c3cccc(C)c3)c2=O)cc1 | -6.3 | -10.3
Cc1nnnn1-c1cccc(NC(=O)NC2CCC(C)CC2)c1 (stereo not given) | 1.7 | -0.1
CCc1cccc2c(C(CC(=O)NCCOC)c3cccc(F)c3)c[nH]c12 (stereo not given) | 15.6 | 14.5
CCOCCCN(CC(=O)N1CCc2sccc2C1c1ccccc1C)C(=O)c1ccccc1F (stereo not given) | -3.8 | 5.6
CC(C(=O)Nc1ccnn1C(C)c1cc(Cl)ccc1Cl)n1cncn1 (stereo not given) | 17.7 | 13.1
N#Cc1c2c(c(N3CCCC3)n3c1nc1ccccc13)CCCC2 | 2.2 | 4.6
CCn1cc(C(CC(=O)N2CCN(C/C=C/c3ccccc3)CC2)c2cccc(C)c2)c2ccccc21 (stereo not given) | 21.5 | 23.5
CCOc1ccc(Oc2cc(NC(=O)Cn3cnc([N+](=O)[O-])n3)cc(Oc3cccc(C)c3)c2)cc1 | -7.4 | -2.2
COc1cccc(NC(=O)Nc2ccc(Nc3ccc(-n4cccn4)nn3)cc2)c1 | -3.0 | -7.2
COCCNc1nc2cc(-c3ccccc3OC)sc2c(=O)n1C | 6.4 | 2.2
CCC(Sc1ccc2nnc(CCNS(=O)(=O)c3ccc(OC)cc3)n2n1)C(=O)OC (stereo not given) | 2.6 | -11.2
Fc1cccc(C2c3cccn3CCCN2Cc2cccc(Cl)c2)c1 (stereo not given) | 10.3 | 6.6
CN1CCN2CCN(Cc3nc4c(s3)CCCC4)CC2C1=O (stereo not given) | -4.5 | -2.7
COc1cc(OC)cc(C(=O)N2CCC(n3c(=O)[nH]c4ccccc43)CC2)c1 | 19.0 | 4.2
Cc1nn(C)cc1C(=O)NCC(C)Oc1ccc(Cl)cc1 (stereo not given) | -23.1 | -24.2
Cc1cc(OS(=O)(=O)c2c(C)nn(C)c2Cl)c(C(C)C)cc1Cl | -4.6 | -6.8
O=C(c1ccc(-c2cc(-c3cccc4c3OCCO4)[nH]n2)cc1)N1CC=C(c2ccccc2)CC1 | -1.5 | -0.4
CCc1nc(COc2cc(Cl)cc(Cl)c2)no1 | -2.1 | -5.6
O=C1NCCN1C1CCCN(c2ccc3nnc(C(F)(F)F)n3n2)C1 (stereo not given) | -1.7 | -3.4
CCCCSc1nnc(NC(=O)Cc2ccccc2)s1 | -4.2 | 3.8
CC(C)(CNC(=O)CC1C(=O)NCCN1Cc1cccc(F)c1F)N1CCOCC1 (stereo not given) | -0.6&8.3 | -4.2&2.9
CCC1CCCCN1C(=O)C(C)OC(=O)c1ccc(-c2ccc(O)cc2)cc1 (stereo not given) | -0.6 | -1.7
Cc1cc(C)n(-c2ccc(C(=O)N3CCN(C)CC34CCCCC4)cc2F)n1 | -1.9 | -4.4
CCc1nccn1CCC(=O)N1CCCC(Nc2ccc(C(C)C)cc2)C1 (stereo not given) | 2.5 | -2.2
N#Cc1cccnc1Sc1ccc(Br)cc1 | 1.7 | 2.2
CN1CCN(C(=O)[C@H]2C[C@H](C(=O)O)CN(Cc3cccnc3)C2)CC1 | 5.5 | 2.0
COCCNC(=O)C(C1CCCC1)N1CCN(C(=O)c2ccc(F)cc2)CC1 (stereo not given) | -5.3 | -3.6
Cc1ccc(OCC(O)Cn2c(C)nc3sc4c(c3c2=O)CCC4)cc1 (stereo not given) | 11.4 | 6.3
CCC(=O)NCC(C)(C)CC(C)C | 16.8 | 7.0
CC(C)N(CC(=O)Nc1cc(-c2ccccc2)nn1-c1ccc(Cl)c(Cl)c1)C(=O)Cc1ccc(F)cc1 | -6.1 | -6.4
CCc1nc2ccc(C(=O)NCCCn3ccnc3)cn2c1N(C=O)CC | -6.9 | -12.6
CCCCCCCOC(=O)C1C(=N)OC2=C(C(=O)CCC2)C1c1ccco1 (stereo not given) | 3.7 | 5.4
Cc1nccn1-c1cc(CNC(=O)Nc2cccnc2N2CCCC2)ccn1 | 11.5 | 4.8
CCOC(=O)C(c1cc(OC)ccc1OC)C1C=CC(NS(=O)(=O)c2ccc(Cl)c([N+](=O)[O-])c2)C1 (stereo not given) | 6.7 | 15.6
O=C(NN1C(=O)C2C3C=CC(C4CC34)C2C1=O)c1cccc(Br)c1 (stereo not given) | 4.9 | 3.7
CNC(=S)N1CCN(c2ccc(C(F)(F)F)cn2)CC1 | 3.5 | 3.5
Cc1cc(CNC(=O)c2ccccc2N2CCCC2=O)ccc1F | 0.5 | -0.7
Cc1ccc(-c2csc3ncn(CCC(=O)NCc4ccc(C)c(F)c4)c(=O)c23)cc1 | 1.3 | -1.1
CSc1nc(N2CCCC2)c2cnn(CCN)c2n1 | -3.3 | -5.1
COc1cccc(C2CC(c3ccc(C)cc3C)=NN2C(=O)CN2CCN(c3ccccc3F)CC2)c1 (stereo not given) | 14.5 | 16.8
Cc1ccc(C(=O)NC(C(=O)NC2CC2)C2CCN(C(=O)Nc3cccc(Cl)c3)CC2)cc1 (stereo not given) | 5.8 | 10.8
Cc1ccc(-c2noc(C(NCC(O)COc3ccccc3)C(C)C)n2)cc1Cl (stereo not given) | 32.8 | 33.3
COc1ccc(C(=O)N2CCN(c3nc(-c4cccc(C(F)(F)F)c4)nc(C)c3Cc3ccccc3)CC2)cc1 | -5.5 | 5.2

Next compounds follow:
SMILES | NPYLR7 ag | NPYLR7 ag max-min
CC(C)CN1CCCC(CNC(=O)c2c[nH]c(=O)c(Cl)c2)C1 (stereo not given) | 4.1 | 4.5
COCCNC(=O)c1cccc(CSc2nc(N3CCN(c4ccc(OC)cc4)CC3)cc(C(C)(C)C)n2)c1 | 5.6 | 4.0
CSc1nc(-c2ccco2)nn1S(C)(=O)=O | -1.0 | -3.2
c1cncc(COC2CCN(Cc3ccc(-c4ccn[nH]4)s3)CC2)c1 | 3.6 | 1.7
O=C(c1cccs1)N(Cc1ccccc1Cl)CC1CC(c2cccc(F)c2)=NO1 (stereo not given) | -0.4 | 5.7
CC(=O)c1c(C)[nH]c(C(=O)C(C)N(C)Cc2ccco2)c1C (stereo not given) | 5.5 | 3.7
CCCOc1ccc(-c2cccc(NS(=O)(=O)c3ccccc3)c2)nn1 | -7.8 | -6.9
Cc1ccc(C(=O)COC(=O)c2cnccn2)cc1C | -1.4 | -4.5
N#CCOc1coc(CN2CCN(c3ccccc3)CC2)cc1=O | 0.5 | -1.4
CCN(CC)C(=O)Oc1ccc2c(ccn2Cc2c(F)cc(F)cc2F)c1-c1ccc(C#N)cc1 | 9.5 | 4.7
c1ccc(-c2noc3nc(NC4CC4)ccc23)cc1 | -1.3 | -1.8
Clc1cccc(C2CCN(Cc3nc(COc4ccccc4)no3)C2)c1 (stereo not given) | -0.4 | -1.8
Cc1ccc(C(C)NC(=O)c2cccnc2SC(F)(F)F)o1 (stereo not given) | 16.6 | 15.8
CC(NC(=O)CCl)c1ccc2c(c1)OCCO2 (stereo not given) | 20.2 | 12.5
CN(C)c1nc(N)nc(COc2ccc(C#N)c(F)c2)n1 | -6.7 | -6.8
COC(=O)c1ccccc1Nc1nc(-c2ccccc2)cc(-c2ccc(C)cc2)n1 | -1.3 | -4.8
CCCCOc1ccc(C(=O)N(CCC)CC(=O)N2CC(=O)N(c3cccc(Cl)c3)C2)cc1 | -7.8 | -5.2
Cc1cccc(CC(=O)Nc2cnn(-c3cccc(C(=O)N4CC5C[C@@H]6CC4C[C@H](C5)C6)c3)c2)c1 | 16.7 | 0.1
CC(C=Nc1ccccc1)C=Nc1ccccc1 (stereo not given) | 0.5&1.2 | -1.4&0.6
Clc1ccc2nc(SCCC3CCCCC3)[nH]c2c1 | -0.1 | -2.1
COC(=O)c1ccccc1C(=O)c1ccccn1 | -6.2 | -5.5
CSc1nc(C)cc(OCCO)n1 | 3.9 | 8.1
COc1cc(-c2cnc(N[C@@H](CO)C(C)C)cn2)cc(OC)c1OC | 2.8 | 4.2
COCCCN(Cc1ccc(C(O)(c2cccs2)c2cccs2)o1)Cc1cccs1 | 1.7 | 4.5
Cc1nc(CN2CCN(C(=O)c3cc(Cl)c4ccccc4c3O)CC2)no1 | 0.8 | -3.0
O=C(NCCc1nc(-c2ccccc2)cs1)c1cccc(=O)[nH]1 | 29.0 | 13.8
CCCc1cc(-n2ccnc2C)n2ncc(-c3ccccc3)c2n1 | 17.8 | 14.1
Cc1ccc(N(CCCCN2C(=O)c3ccccc3C2=O)C(=O)c2ccccc2C)cc1 | 22.8 | 9.5
COc1ccc(C(=O)Nc2c(Cl)cc(Cl)cc2C(=O)N2CCCC2)cc1 | -4.3 | -0.5
CC1=C(C(=O)Nc2ccccc2Cl)C(c2cccc3ccccc23)NC(=O)N1 (stereo not given) | -0.6 | -3.7
Cc1c(C)n2c3c(=O)n(CCCc4ccccc4)c(=O)n(C)c3nc2n1C | -1.0 | 25.1
COc1cccc2cc(C(N)=O)c(=Nc3ccc(C(F)(F)F)cc3)oc12 | -5.3 | -9.0
C=CCNC(=O)C(C)N1CCC(NC(=O)CC2CCCC2)CC1 (stereo not given) | 10.5 | 4.5
CCNC1=C(C(=O)Nc2ccccc2)S(=O)(=O)c2ccccc21 | 1.6 | 1.4
O=C1c2cccnc2OC(CN2CCOCC2)CN1CCOc1ccccc1 (stereo not given) | -5.7 | -7.8
CC(C)c1onc(C(=O)NC2CCCCC2)c1[N+](=O)[O-] | 1.9 | 2.3
O=c1c2cc(-c3ccccc3)sc2ncn1N=Cc1ccco1 | -6.2 | -14.3
COc1cccc(-n2cc(CN(C)Cc3cccnc3)cn2)c1 | 3.0 | 0.9
O=C(CCN(Cc1ccccc1)c1nc(-c2cccs2)nc2ccccc12)NCc1ccco1 | 17.5 | 18.9
COc1cccc2c1OCC(C(=O)N1CCC3(CC1)NCCNC3=O)C2 (stereo not given) | -0.8 | -1.3
CCN(CC)c1ncccc1CNC(=O)Cc1c(C)n[nH]c1C | -0.8 | -0.9
Cc1cc2nc(CN3CCCC3c3nc4ccc(F)cc4[nH]3)cc(=O)n2[nH]1 (stereo not given) | 6.0 | 1.2

A different layout for four compounds above.
structure: CCc1cccc2c(C(CC(=O)NCCOC)c3cccc(F)c3)c[nH]c12 (stereo not given)
  NPYLR7 ag = 15.6
  NPYLR7 ag max-min = 14.5

structure: CCOCCCN(CC(=O)N1CCc2sccc2C1c1ccccc1C)C(=O)c1ccccc1F (stereo not given)
  NPYLR7 ag = -3.8
  NPYLR7 ag max-min = 5.6

structure: CC(C(=O)Nc1ccnn1C(C)c1cc(Cl)ccc1Cl)n1cncn1 (stereo not given)
  NPYLR7 ag = 17.7
  NPYLR7 ag max-min = 13.1

structure: N#Cc1c2c(c(N3CCCC3)n3c1nc1ccccc13)CCCC2
  NPYLR7 ag = 2.2
  NPYLR7 ag max-min = 4.6

Reformatted as a markdown table: entries from further up
| Structure | NPYLR7 ag | NPYLR7 ag max-min |
| --- | --- | --- |
| CC(C)c1onc(C(=O)NC2CCCCC2)c1[N+](=O)[O-] | 1.9 | 2.3 |
| O=C1c2cccnc2OC(CN2CCOCC2)CN1CCOc1ccccc1 (stereo not given) | -5.7 | -7.8 |
| O=c1c2cc(-c3ccccc3)sc2ncn1N=Cc1ccco1 | -6.2 | -14.3 |
| Cc1cc2nc(CN3CCCC3c3nc4ccc(F)cc4[nH]3)cc(=O)n2[nH]1 (stereo not given) | 6.0 | 1.2 |
| CCNC1=C(C(=O)Nc2ccccc2)S(=O)(=O)c2ccccc21 | 1.6 | 1.4 |
| COc1cccc2c1OCC(C(=O)N1CCC3(CC1)NCCNC3=O)C2 (stereo not given) | -0.8 | -1.3 |
| O=C(CCN(Cc1ccccc1)c1nc(-c2cccs2)nc2ccccc12)NCc1ccco1 | 17.5 | 18.9 |

Some of the compounds tested; count on the stated rates, not on these rows.
